# Bioassay records as filed in PubChem.
# Rango-impB inh = qHTS Assay for Inhibitors of Rango (Ran-regulated importin-beta cargo) - Importin beta complex formation; Importin subunit beta-1 (Homo sapiens), Q14974; Rango CFP/YFP FRET sensor + importin beta, 45 min; Potency, µM (titrated, usually from 92.2 µM), inactives show top-dose inhibition of complex formation; 340,000 compounds, 0.031% hits; active = rising FRET ratio curve, often small or poorly fitted; inconclusive = mostly compound fluorescence or quenching in the first reads; inactive = flat curves in all reads;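 note: potency is the fitted concentration of half-maximal effect; 0% = DMSO wells and 100% = buffer wells lacking importin beta; nearly all actives have a fitted effect of over 15% in size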
#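 Inhibition scored from the CFP 486 nm/YFP 530 nm FRET ratio 45 min after adding 0.125 microM importin beta to 50 nM Rango biosensor preincubated 5 min with compound (room temperature, PBS with DTT, Tween-20, BSA). No-importin wells as positive control.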
# miR-21 reporter = qHTS Assay for Modulators of miRNAs and/orActivators of miR-21 | HeLa miR-21 FLuc reporter, luciferase, 48 h | Potency, µM (series often up to 38.3 µM), without a hit: top-dose reporter change, positive = more light | 340,000 tested, under 10 active | AID 2288, 2010; active = well fitted rising curve with a large enough effect; inconclusive = small, poorly fitted or top-dose-only effect; inactive = no such curve, though single readings can be large or run the other way;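 note: % of control where 0% means no effect; miR-21 action dims this reporter so a rising signal means less miR-21 action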
#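 HeLa cells stably expressing CMV-driven firefly luciferase with a downstream miR-21 binding sequence, endogenously expressing miR-21, were treated with titrations (up to about 40uM final) for 48 hours at 37 degree Celsius. Luciferase luminescence was read after lysis.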
# GLA inh pH 4.5 = qHTS Assay for Inhibitors of Human alpha-Galactosidase at pH 4.5; 230,000 tested, under 10 active; purified enzyme, 4-MU-alpha-Gal fluorescence, pH 4.5; activity change, negative = inhibition, % at 105 µM; Alpha-galactosidase A (Homo sapiens), P06280; inconclusive = small, poorly fitted or top-dose-only inhibition, or a rising curve; inactive = flat fitted curve, though single readings scatter; no compound was filed as active;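 note: 0% = full activity with enzyme and -100% = basal without enzyme; dose as in the result columns while the protocol names 77 µM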
# Target sequence (P06280 whole entry, looked up): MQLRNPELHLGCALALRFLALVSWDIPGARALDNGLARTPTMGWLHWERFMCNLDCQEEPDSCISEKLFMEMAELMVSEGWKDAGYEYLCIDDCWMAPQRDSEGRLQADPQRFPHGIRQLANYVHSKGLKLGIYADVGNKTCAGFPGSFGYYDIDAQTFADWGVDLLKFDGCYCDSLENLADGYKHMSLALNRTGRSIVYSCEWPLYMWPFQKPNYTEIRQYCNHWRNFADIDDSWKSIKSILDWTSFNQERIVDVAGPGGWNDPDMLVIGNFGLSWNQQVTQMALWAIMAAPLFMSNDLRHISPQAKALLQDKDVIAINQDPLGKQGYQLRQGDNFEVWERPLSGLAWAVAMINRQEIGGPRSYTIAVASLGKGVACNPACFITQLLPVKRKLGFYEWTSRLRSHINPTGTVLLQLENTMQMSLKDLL
# Rango dissoc inh = qHTS Assay for Inhibitors of RanGTP induced Rango (Ran-regulated importin-beta cargo) - Importin beta complex dissociation; AID 540253, 2011; Snurportin-1 (Homo sapiens) + GTP-binding nuclear protein Ran (Homo sapiens) + Importin …; 340,000 compounds, 0.071% hits; Potency, µM (titrated, usually from 46.1 µM), for the others: at the top dose activity change, negative = inhibition; Biochemical FRET Rango-importin beta, RanGTP-induced dissociation; active means falling FRET ratio curve, often poorly fitted, with flat reads before Ran was added; inconclusive means other falling curves, or compound fluorescence or quenching; inactive means flat or rising ratio curve;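 note: potency is the fitted concentration of half-maximal effect; % of control where 0% means no effect; nearly all actives have a fitted effect of over 45% in size; -100% = wells without RanGTP and RCC1; the record marks most hits as doubtful in a second field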
#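 Rango/importin beta premix (0.1/0.25 uM final), PBS + 1 mM DTT + 0.02% Tween-20 + 0.1% BSA; cpd 5 min RT; FRET pre-read; + RanGTP-RCC1 (0.6 uM Ran, 2 mM GTP, 0.2 uM RCC1); 45 min RT; FRET post-read, ex 430, em 486/530 nm.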
# An asterisk follows results filed as active; ? = inconclusive; . = not tested or not shown; & = joins results of further samples; [ ] = dose if it differs, or a comment. The list is partial; rates above refer to the full screens.
SMILES,Rango-impB inh,miR-21 reporter,GLA inh pH 4.5,Rango dissoc inh
COc1cc(OC)c(C2=NOC(C(=O)N3CCCc4ccccc43)C2)cc1Cl (stereo unspecified),-3.5%,-3%,0,5%
CC1=C(C(=O)OC2CCCCCC2)C(c2ccc(C)o2)C2=C(CCCC2=O)N1 (stereo unspecified),-1.0%,-4%,3,-23%
CCCOc1ccccc1/C=N/Nc1ccnc(=O)[nH]1,6.0%,-10%,.,24%
COc1cc(NC(=O)C/C(C)=N/NC(=O)C(OC)c2ccccc2)c(OC)cc1Cl (stereo unspecified),0.6%,-2%,-6,-4%
CSc1ccc(Cl)c(C(=O)OCC(=O)NCc2ccco2)c1,-0.5%,-2%,-2,-3%
CCN1CCN(Cc2ccc(NC(=O)c3cc(NC(=O)c4cnnc5ccccc45)cc(OC)c3)cc2C(F)(F)F)CC1,?,-14%,0,-3%
O=C(c1ccccc1NS(=O)(=O)c1ccccc1[N+](=O)[O-])N1CCCC1,3.3%,-1%,.,1%
O=C(CSCc1c(Cl)cccc1Cl)NCC1CCCO1 (stereo unspecified),-0.2%,-6%,6,3%
CC1(C)C2CCC(C2)C1(C)NC(=O)CNCc1cccs1 (stereo unspecified),-0.9%,3%,7,-26%
Cc1ccc(Cl)c(Nc2ccccc2C(=O)O)c1Cl,6.6%&0.0%,-7%,-6&-5&-6&3,8%&31%
CCN(CC)c1ccc(NC(=O)C2=CC=CN3CCS(=O)(=O)N=C23)cc1,0.5%,.,.,-2%
CCN(CC)c1nc(N)nc(NS(=O)(=O)c2ccc(Cl)cc2)n1,-3.8%,2%,6,0%
O=C(CCCN1C(=O)/C(=C/c2cccs2)SC1=S)Nc1ccccc1O,?,-2%,.,-11%
COc1cc(/C=C(\C#N)c2ccccn2)ccc1OCc1ccc(Cl)cc1,-0.3%,-14%,-3,-23%
CCOCCCNC(=O)Cn1cc2c(n1)CCCC2,-6.1%,-5%,6,1%
COc1ccccc1-n1cc(CN2CCN(C3CCCC3)C(CCO)C2)cn1 (stereo unspecified),0.1%,-3%,4,10%
Cc1ccc(C)c(NC(=O)CCC(=O)NNC(=S)Nc2ccccc2)c1,0.1%,1%,-4,-9%
CN(NC(=O)c1ccc(Cl)cc1)c1nc(-c2ccccc2)nnc1C(F)(F)F,-4.2%,9%,4,-10%
CCCCNC(=O)C(CC)(ONc1ccccc1C(F)(F)F)c1ccccc1 (stereo unspecified),?,.,.,-26%
Cc1cccc2nc(C(=O)Nc3cc(Cl)ccc3-n3cncn3)cn12,5.5%,.,.,12%
CCOCCCNC(=S)Nc1ccc(Br)cc1Cl,-1.2%,-15%,-2,11%
Cc1nc(SCc2ccc(F)cc2)c([N+](=O)[O-])[nH]1,0.4%,-20%,-11,-29%
CSCCC(NC(=O)c1ccccc1)C(=O)N/N=C(\C)Cc1ccccc1 (stereo unspecified),0.0%,-2%,.,-11%
Cc1nc(NCC2CCCO2)nc2c1C(=O)CC(C)C2 (stereo unspecified),0.3%,-2%,-8,7%
NC(=O)c1ccsc1NC(=O)CSc1ccccc1F,1.3%,-47%,5,30%
COc1ccc(O)c(C(c2c(C)[nH][nH]c2=O)c2c(C)[nH][nH]c2=O)c1,4.9%,-4%,1,-10%
COc1ccc(S(=O)(=O)NC2CC(=O)N(c3cccc(F)c3)C2)cc1OC (stereo unspecified),-2.0%,.,.,14%
CC1CCCCN1S(=O)(=O)c1ccc(C(=O)Nc2nnc(-c3cccs3)o2)cc1 (stereo unspecified),0.8%,?,-5,10%
CCC(=O)Nc1ccc(S(=O)(=O)NCCc2ccccc2)cc1,0.2%,3%,0,-4%
O=C(CCN1CCCCC1)N=Nc1c(O)[nH]c2ccccc12,1.3%,0%,-8[21.1 µM],2%
Nn1cc(-c2ccccc2)nc1SCC(=O)N1CCN(S(=O)(=O)c2ccc(Cl)cc2)CC1,-0.4%,1%,2,12%
O=c1c(-c2cc3ccccc3o2)[n+]([O-])c2ccccc2n1OCc1ccccn1,?,-39%,-10,?
O=C(NCc1cccnc1)c1nnc(Cc2ccc(F)cc2)o1,0.5%,-2%,-2,-2%
COc1ccc(C(=O)c2ccc(Cl)c([N+](=O)[O-])c2)cc1,1.4%,30%,3,-15%
O=C(Cc1ccc([N+](=O)[O-])cc1)Nc1cccc(C(=O)N2CCOCC2)c1,0.7%,.,.,22%
CCOCCCn1c(=NC(C)=O)c(C#N)cc2c(=O)n3cccc(C)c3nc21,?,1%,?,?
O=C(NC1CCS(=O)(=O)C1)c1cccc(Cl)c1 (stereo unspecified),0.7%,.,.,17%
CCC(C)(C)c1ccc(Oc2ccc(NC(=O)COC(=O)C3=COCCO3)cc2)cc1,0.0%,?,1,0%
O=C(Nc1ccc(Cl)cc1Cl)C1CCC(=O)N1Cc1ccccc1Cl (stereo unspecified),6.4%,2%,-2,0%
Clc1ccc(CSc2nnc3ccccn23)c(Cl)c1,0.9%,-78%,1,8%

# 5 compounds drawn at random from those above:
SMILES,Rango-impB inh,miR-21 reporter,GLA inh pH 4.5,Rango dissoc inh
CCC(=O)Nc1ccc(S(=O)(=O)NCCc2ccccc2)cc1,0.2%,3%,0,-4%
CCOCCCNC(=S)Nc1ccc(Br)cc1Cl,-1.2%,-15%,-2,11%
CSCCC(NC(=O)c1ccccc1)C(=O)N/N=C(\C)Cc1ccccc1 (stereo unspecified),0.0%,-2%,.,-11%
COc1ccc(C(=O)c2ccc(Cl)c([N+](=O)[O-])c2)cc1,1.4%,30%,3,-15%
O=C(Cc1ccc([N+](=O)[O-])cc1)Nc1cccc(C(=O)N2CCOCC2)c1,0.7%,.,.,22%

# Further compounds
SMILES,Rango-impB inh,miR-21 reporter,GLA inh pH 4.5,Rango dissoc inh
CCOC(=O)c1sc(NC(=O)CSc2nnnn2-c2ccccc2)nc1C,-1.1%,0%,-5,27%
CC(=O)N/C(=C\c1cccc([N+](=O)[O-])c1)C(=O)NC1CCCCC1,-6.9%,-23%,5,1%
CC(C)NS(=O)(=O)c1cccc2nsnc12,-1.9%,-2%,-15,-15%
CCCc1nnc(SCC(=O)Nc2nccs2)o1,-6.8%,-2%,.,6%
Cc1cc(C)n(C(=O)CCC(=O)Nc2ccc(C)c(C)c2)n1,-0.2%,-1%,11,-4%
Cc1cc2c(cc1C)-c1c(ssc1=Nc1ccc(S(N)(=O)=O)cc1)C(C)(C)N2,-2.3%,1%,1,18%
Cc1cc(C)n(CC(=O)Nc2ccc(N3CCOCC3)c(Cl)c2)c(=O)c1C#N,1.1%,5%,.,-5%
Cc1csc(NC(=O)c2ccc[nH]c2=O)n1,-5.9%,-43%,.,-16%
CCOc1ccc(NC(=O)c2cccc(S(=O)(=O)Nc3c(C)n(C)n(-c4ccccc4)c3=O)c2)cc1,?,.,.,-19%
COc1ccc(S(=O)(=O)Nc2ccc3c(c2)n(C)c(=O)n3C)cc1OC,1.8%,-6%,.,29%
CC1(C)Nc2ccccc2N(Cc2ccc([N+](=O)[O-])cc2)C1=O,-1.0%,3%,-1,-21%
CN1CCN(c2nc3c(c(=O)n(C)c(=O)n3C)n2Cc2ccc(Cl)cc2)CC1,0.6%,2%,.,-2%
CCOC(=O)C1=C(Nc2ccccc2)CC(C)(O)C(C(=O)OCC)C1c1ccc(Br)cc1 (stereo unspecified),0.9%,6%,-10,0%
Cc1ccc(S(=O)(=O)N2[C@@H](c3ccc(F)cc3)C(C(=O)O)=CC[C@H]2c2ccc(C(C)C)cc2)cc1,4.9%,.,.,-12%
Cc1[nH]c2ccccc2c1C(c1ccncc1)N1CCN(c2ccccc2F)CC1 (stereo unspecified),-1.5%,-5%,3,-6%
Cc1nc(-c2ccc(Br)cc2)ccc1C(=O)O,4.4%,?,-4,24%
CN(C(=O)COC(=O)c1ccc(Cl)c(S(=O)(=O)N2CCCCC2)c1)C1(C#N)CCCCC1,-2.3%,.,.,-9%
COC(=O)c1cc(Br)ccc1NC(=O)Nc1ccc(C)cc1,6.9%,.,.,18%
Cc1ccc(C)c(OCc2cc(C(=O)N3CC[C@@H]4CCCC[C@H]4C3)no2)c1,-5.2%,-45%,.,10%
CC1=C(C(=O)OC2CCCC2)C(c2coc3ccccc3c2=O)C2=C(CC(C)(C)CC2=O)N1 (stereo unspecified),-7.2%,8%,-11,-13%
O=C(CSc1ccsc1[N+](=O)[O-])Nc1cc(F)ccc1F,-0.2%,-1%,-2,10%
Cc1n[nH]c(C)c1CCCCOc1ccc([N+](=O)[O-])cc1,2.2%,8%,.,-6%
CC(=O)c1c(C)[nH]c(C(=O)NCc2ccccc2)c1C,-3.1%,-21%,-3,2%
C=Cn1cc[n+](CC(=O)c2cc(C(C)(C)C)c(O)c(C(C)(C)C)c2)c1,2.6%,12%,.,6%
Oc1c(N=NC(=S)Nc2ccccc2F)c2ccccc2n1Cc1ccccc1,1.2%,-4%,-9[21.1 µM],17%
COc1ccccc1/C=C/C(=O)NC(=S)NCC1CCCO1 (stereo unspecified),-0.5%,-8%,-1,-8%
Cc1cccc(-n2cc[nH]c2=S)c1,-3.7%,4%,-6,5%
Cc1cc(C(=O)COc2cc(F)ccc2[N+](=O)[O-])c(C)n1C1CC1,-1.6%,-18%,1,11%
COc1ccccc1NC(=O)c1[nH]c(C)c(C(C)=O)c1C,-1.1%,-19%,2,6%
CNS(=O)(=O)c1cc(O)c2c(S(=O)(=O)NC)cccc2c1,1.9%,-2%,-17,-21%
COc1ccc(NC(=O)CNC(=O)C2CCCCC2)cc1,0.0%,-26%,.,-17%
Nc1ccc(C(=O)Nc2ccc(NC(=O)c3ccco3)c(O)c2)cc1,-0.4%,-18%,-5,-13%
CC1(C)CC(n2c(NCCO)nc3c(c2=O)C2(CCCC2)Cc2ccccc2-3)CCO1 (stereo unspecified),-1.4%,1%,1,14%
Cc1occc1-c1nnc(SCC(=O)N2CCN(c3ccccc3F)CC2)n1C,.,1%,3,.
CCCC(=O)NC(c1ccccc1Cl)c1ccc2cccnc2c1O (stereo unspecified),0.4%,24%,.,-12%
CC(C)c1ccc(OCC(=O)Nc2ccc(OC(F)(F)F)cc2)cc1,-4.5%,-4%,4,-20%
CCc1nnc(NS(=O)(=O)c2ccc(NC(=S)NC(=O)c3cccs3)cc2)s1,0.7%,-1%,11,-20%
CCOc1ccc(C(O)(c2ccccc2)C(CN2CCCC2)c2ccccc2)cc1 (stereo unspecified),3.1%,2%,.,8%
Cc1cccc(NC2=NC(C)(C)N=C(N)N2)c1,-0.3%,19%,0,10%
Cc1cccc(NC(=O)c2cccc(NC(=O)Cc3cccs3)c2)c1,2.8%,-30%,-6,0%
COc1cc(C(=O)COC(=O)C2CCCCC2)cc(OC)c1OC,0.1%,.,.,1%
Cc1nn(Cc2ccccc2)c(C)c1CNC(=O)c1ccc(F)c(S(=O)(=O)N2CCOCC2)c1,-0.4%,.,.,-13%
O=[N+]([O-])c1ccc(S(=O)(=O)NCCS(=O)(=O)N2CCN(c3ccccc3)CC2)cc1,-4.3%,11%,.,-5%
CCCCn1c(NC(=O)c2ccc(Br)o2)c(S(=O)(=O)c2ccccc2)c2nc3ccccc3nc21,?,0%,-6,?
CCOC(=O)CCC(=O)Nc1ccc(S(=O)(=O)Nc2cc(OC)nc(OC)n2)cc1,1.5%,1%,.,7%
CC(C)(C)OC(=O)N1Cc2ccccc2C[C@H]1C(=O)NCC(=O)Nc1ccc2c(c1)OCCO2,-0.3%,-27%,.,7%
CCCCNc1c(-c2ccc(OC)c(SC3CCCCC3)c2)nc2cnccn12,?,.,.,?
Cc1nn(C)c(C)c1C(C)NC(=O)c1cc(COc2cncc(Cl)c2)on1 (stereo unspecified),-0.3%,0%,.,11%
O=C(N/N=C/c1c[nH]c2ccccc12)c1cc(Br)ccc1O,-0.4%,-13%,.,-11%
